2A StopGo = High Throughput Screening for Foot and Mouth Disease Virus Antivirals; human cells with a luciferase reporter of 2A StopGo recoding; control for the full effect not named in the record; Potency, µM (highest dose often 57.9 µM), without a hit: at the top dose signal change, negative = less light; hit rate 1.2% among 410,000; AID 1159524, 2015; active = well fitted falling curve with a large enough effect; inconclusive = small, poorly fitted or top-dose-only effect; inactive = no such curve, though single readings can be large or run the other way; tested in HEK293T cells; further: on the % scale 0 is the no-effect control and ±100 the full control effect; nearly all actives have a fitted effect of over 45% in size; luciferase light after 4 h
LASV entry inh = qHTS for Inhibitors of binding or entry into cells for Lassa Virus; Lassa virus pseudotype entry inhibition, cell reporter; control for the full effect not named in the record; Potency, µM (top dose mostly 37.9 µM), inactives show at the top dose activity change, negative = inhibition, usual class: inhibitors; AID 540256, 2011; hit rate 1.2% among 300,000; active means well fitted inhibition curve with a large enough effect; inconclusive means small, poorly fitted or top-dose-only effect, or effect the other way; inactive means flat fitted curve, though single readings scatter; tested in HEK293 cells; further: on the % scale 0 is the no-effect control and ±100 the full control effect; nearly all actives have a fitted effect of over 50% in size; luciferase read-out
NS1 function inh = qHTS Assay for Inhibitors of Influenza NS1 Protein Function; S. cerevisiae slowed by influenza A NS1, growth recovery by OD600; Potency, µM (titrated, usually from 46.1 µM), without a hit: at the highest dose activity, positive = more growth; hit rate 0.4% among 270,000; active means well fitted rising curve with a large enough effect; inconclusive means small, poorly fitted or top-dose-only effect; inactive means no such curve, though single readings can be large or run the other way; further: nearly all actives have a fitted effect of over 50% in size
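In this qHTS, NS1 from influenza A is expressed in budding yeast, where it slows growth. Cells are switched from glucose to 2% galactose medium (pH 6.0, -URA), treated with compound, and growth recovery is read at OD600.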
SARS PLpro yeast = qHTS of Yeast-based Assay for SARS-CoV PLP; S. cerevisiae expressing SARS-CoV PLpro, growth rescue; control for the full effect not named in the record; Potency, µM (series often up to 32.9 µM), for the others: at the highest dose activity, positive = growth rescue; hit rate 0.19% among 330,000; AID 485353, 2010; active means well fitted rising curve with a large enough effect; inconclusive means small, poorly fitted or top-dose-only effect; inactive means no such curve, though single readings can be large or run the other way; further: 0% is about no effect; nearly all actives have a fitted effect of over 55% in size; growth read by luminescence after 48 h
Marburg entry inh = qHTS for inhibitors of binding or entry into cells for Marburg Virus; Potency, µM (titrated, usually from 37.8 µM), without a hit: at the highest dose activity change, negative = inhibition, most hits filed as inhibitors; Marburg virus pseudotyped entry inhibition, cell reporter; control for the full effect not named in the record; about a third of the inactives were read at about 46 µM; hit rate 1.8% among 300,000; AID 540276, 2011; active = well fitted inhibition curve with a large enough effect; inconclusive = small, poorly fitted or top-dose-only effect, or effect the other way; inactive = flat fitted curve, though single readings scatter; tested in HEK293 cells; about a fifth of its hits are not listed in these tables; further: on the % scale 0 is the no-effect control and ±100 the full control effect; luciferase read-out
Cruzain inh noDet = qHTS Assay for Promiscuous and Specific Inhibitors of Cruzain (without detergent); Potency, µM, inactives show max response, negative = inhibition, usual class: inhibitors; Cruzipain (Trypanosoma cruzi), P25779; purified cruzain, Z-FR-AMC fluorescence, no detergent; hit rate 2.3% among 200,000;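 further: plate controls were enzyme without inhibitor for no effect and buffer without enzyme for full effect; nearly all actives have a fitted effect of over 40% in size; top concentration of the series not given in the record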
Target sequence (P25779 123-467 limits assumed): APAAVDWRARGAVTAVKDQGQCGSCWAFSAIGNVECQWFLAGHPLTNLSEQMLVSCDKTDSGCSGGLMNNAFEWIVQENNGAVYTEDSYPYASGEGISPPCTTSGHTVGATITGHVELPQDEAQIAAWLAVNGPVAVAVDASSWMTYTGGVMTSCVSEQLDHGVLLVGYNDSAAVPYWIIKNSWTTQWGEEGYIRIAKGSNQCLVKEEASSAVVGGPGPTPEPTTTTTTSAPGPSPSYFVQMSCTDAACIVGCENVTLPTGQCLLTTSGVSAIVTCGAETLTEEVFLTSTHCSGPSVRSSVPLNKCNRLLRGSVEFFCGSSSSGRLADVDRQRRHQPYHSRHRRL
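Purified cruzain at 1.5 nM, pre-incubated 15 min with compound at room temperature in 100 mM sodium acetate pH 5.5, 5 mM DTT, 0.00005% Triton X-100. Reaction started with 2 uM Z-FR-AMC; AMC fluorescence increase over 60 s gives rate.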
Cruzain inh Det = qHTS Assay for Promiscuous and Specific Inhibitors of Cruzain (with detergent). Cruzipain (Trypanosoma cruzi), P25779. purified cruzain, Z-FR-AMC fluorescence, 0.01% Triton. Potency, µM, inactives show max response, negative = inhibition, actives largely listed as inhibitors. hit rate 0.43% among 200,000. AID 1478, 2009;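 further: plate controls were neutral wells for no effect and buffer without enzyme for full effect; nearly all actives have a fitted effect of over 40% in size; top concentration of the series not given in the record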
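Purified cruzain (1.5 nM final) was preincubated with compounds for 15 min at room temperature in 100 mM sodium acetate pH 5.5, 5 mM DTT, 0.01% Triton X-100. Reaction started with 2 uM Z-FR-AMC; AMC fluorescence change over 60 s gave activity.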
RE007 growth inh = qHTS Assay for Inhibitors of the HIV-1 protein Vpr. S. pombe RE007 Vpr strain, BacTiter-Glo ATP luminescence, 24 h; control for the full effect not named in the record. Potency, µM (highest dose often 92.2 µM), for the others: at the highest dose activity change, negative = less growth. hit rate 0.21% among 360,000. AID 651644, 2012; active = well fitted falling curve with a large enough effect; inconclusive = small, poorly fitted or top-dose-only effect; inactive = no such curve, though single readings can be large or run the other way;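 further: on the % scale 0 is the no-effect control and ±100 the full control effect; nearly all actives have a fitted effect of over 50% in size; the assay follows cell death caused by Vpr and the record does not say whether a fall means rescue or toxicity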
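Fission yeast RE007 carrying one integrated HIV-1 vpr copy, seeded at OD 0.01 in PMG+AL medium with 23 nL pinned compound. Grown 24 h at 30 degrees; viability read by BacTiter-Glo luminescence after 5 min.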
* hit, by the source's call; ? = inconclusive; . = not tested or not shown; & = joins results of further samples; [ ] = dose if it differs, or a comment. Unless noted, the call rests on the fitted dose curve; in most records, active means well fitted curve in the direction sought with a large enough effect; inconclusive means small, poorly fitted or top-dose-only effect, or another doubt; inactive means no such curve, though single readings can be large; an effect the other way counts as inactive or inconclusive. Potency means the concentration at half of the fitted maximal effect.

SMILES | 2A StopGo | LASV entry inh | NS1 function inh | SARS PLpro yeast | Marburg entry inh | Cruzain inh noDet | Cruzain inh Det | RE007 growth inh
COc1ccc(Cn2c(N)c(S(=O)(=O)c3cccs3)c3nc4ccccc4nc32)cc1 | 5% | -29% | 17% | 7% | 27% | 3% | -2.4% | -4%
CCc1nn(C(C)C(=O)N2CCN(c3cccc(C(F)(F)F)c3)CC2)c(=O)c2cc3occc3n12 (stereo not drawn) | -27% | -3%[46.1 µM] | . | . | ? | ? | -7.7% | .
O=C(CCc1ccccc1)N1CCN(c2ccccn2)CC1 | 16% | 3% | 16% | 10% | 36% | -1% | 0.1% | -20%
COC(=O)c1sccc1NC(=O)Nc1ccccc1F | 66%[activator] | . | -6% | -10% | . | . | . | -22%
CCOCCCNc1nc(C)nc2c1nnn2Cc1c(F)cccc1Cl | 8% | -29%[46.1 µM] | . | 1% | ? | . | . | 9%
COC(=O)c1c(NC(=O)C2=COCCO2)sc(C)c1C | 12% | 0%[46.1 µM] | . | -11% | -4% | . | . | -2%
CC(=O)N1CCC(C(=O)Nc2ccccc2)(N(Cc2ccccc2)C(=O)c2cccnc2)CC1 | -3% | 7% | -8% | 5% | 9%&9% | 6% | 6.5% | 12%
N#C/C(=C\c1cccs1)C(=O)NCC1CCCO1 (stereo not drawn) | 47%[activator] | ? | -6% | 1% | 10%[46.1 µM] | 0% | 1.8% | 10%
O=C1Cc2cc(S(=O)(=O)NCc3ccc(F)cc3)ccc2N1 | 28% | ? | . | 5% | 14% | . | . | -3%
O=C(COC(=O)CNC(=O)c1ccccc1)NCCc1ccccc1 | -4% | 4% | . | 2% | 6%[46.1 µM] | . | . | 2%
Cc1ccc2c(Cl)cc(Cl)c(OCC(=O)Nc3cccc(S(N)(=O)=O)c3)c2n1 | ? | -26% | 20% | -3% | ? | 7% | -9.8% | -9%
N#Cc1cc2cc3c(cc2nc1N1CCOCC1)OCO3 | -2% | -14% | -5% | ? | 5%[46.1 µM] | 4% | -2.7% | 13%
C#CCOc1ccc(Br)cc1C(c1c(C)[nH][nH]c1=O)c1c(C)[nH][nH]c1=O | -6% | . | 0% | 0% | . | . | . | -8%
Cc1nc2c3ccccc3nc(NNC(=O)CCC(=O)NC3CCCC3)n2n1 | 5% | -11% | . | 3% | -10%[46.1 µM] | . | . | 7%
CC(=O)c1ccc(OCC(=O)Nc2ccc3c(c2)CCC3)cc1 | 1% | 7% | . | -1% | -7%[46.1 µM] | . | . | 2%
Cc1ccc2cc(CN(CCN(C)C)C(=O)Nc3ccc(Cl)cc3)c(=O)[nH]c2c1 | 14% | ? | -3% | -1% | ? | . | . | -10%
O=C(Nc1cccc(S(=O)(=O)N2CCCC2)c1)C1CCCN1C(=O)c1cccs1 (stereo not drawn) | -1% | . | -12% | -1% | . | . | . | -11%
CC(C)CN(C(=O)COC(=O)CSc1ccc([N+](=O)[O-])cc1)C1CCS(=O)(=O)C1 (stereo not drawn) | -3% | -4%[46.1 µM] | . | 0% | 12% | . | . | 50%
O=[N+]([O-])CCO | -21% | . | . | 1% | . | -5% | 0.8% | -3%
CN(CCOc1ccccc1)C(=O)c1cc(S(=O)(=O)N2CCOCC2)ccc1Cl | -25% | -29% | . | . | -25% | . | . | -11%
CCC(C)n1c(C)cc(=O)n1C(C)CC (stereo not drawn) | -12% | 15% | . | . | 26% | . | . | -6%
N#C/C(=C/c1ccc(Sc2nc3ccccc3[nH]2)o1)c1cccc(F)c1 | ? | 1% | -99% | -7% | -20% | ? | -4.7% | -6%
O=c1c2ccccc2nc2n1CCS2 | -7% | -3% | -7% | 5% | 3% | -2% | 1.6% | -2%
COc1ccc(CNC(=O)C[C@H]2C[C@H](C(=O)N3CCCCC3)[C@@]3(C)c4[nH]c5ccc(Cl)cc5c4CCN3C2=O)cc1OC | -28% | . | . | -5% | 2% | . | . | 10%
CCC(NC(=O)c1ccccc1NC(=O)C(C)(C)C)C(=O)N1CC(C)OC(C)C1 (stereo not drawn) | -19% | -15% | . | 2% | 0%[46.1 µM] | . | . | 5%
Cn1c(C2CCCCC2)nc2ccccc21 | 23% | 21% | -4% | -2% | ? | . | . | 3%
COc1ccc(OC)c(CCNC(=O)C(=O)Nc2ccc3nc4n(c(=O)c3c2)CCCCC4)c1 | ? | . | -4% | -2% | . | . | . | 4%
CCOC(=O)CC1C(=O)NCCN1S(=O)(=O)c1ccccc1Cl (stereo not drawn) | -7% | 2% | 8% | 6% | -6% | -5% | 2.7% | 3%
O=C(C1CCC(=O)N1Cc1ccccc1Cl)N1CCC2(CC1)OCCO2 (stereo not drawn) | 6% | 0% | -2% | 2% | -2% | -3% | 6.0% | 6%
CC(C)(C)c1ccccc1NC(=O)N1CCNC(=O)C1CC(=O)Nc1ccc(F)cc1 (stereo not drawn) | -8% | -5% | 3% | -1% | 25% | . | . | -3%
COc1ccc(S(=O)(=O)NCCSc2nnnn2-c2ccccc2)cc1OC | 10% | -26%[46.1 µM] | . | . | 11%[46.1 µM] | 8% | -0.6% | .
Nc1[nH]nc2nc(N3CCCC3)nc(-c3ccccc3)c12 | -15% | -3% | 6% | 16% | ? | -11% | -5.1% | 8%
O=C(NNC(=O)C1CC2CCC1C2)c1ccccc1 (stereo not drawn) | 6% | 7% | 2% | 13% | 24% | 10% | 5.0% | -5%
O=C(CCN1C(=O)C2C3C=CC(C3)C2C1=O)N1CCN(c2ccccn2)CC1 (stereo not drawn) | 2% | -23% | 7% | -5% | 1% | 4% | -2.9% | 0%
CC1CCC(NC(=O)C2COc3ccccc3O2)CC1 (stereo not drawn) | 18% | 16% | . | 6% | -4% | . | . | -13%
CC(=O)Nc1ccc(S(=O)(=O)N(C)c2ccc(OCCOc3ccccc3F)cc2)cc1 | -10% | -19% | . | 5% | 1% | . | . | -4%
C/C(=N/NC(=S)Nc1cccc(C)c1)c1cccc([N+](=O)[O-])c1 | 29% | . | 13% | 1% | . | . | . | -10%
Cc1nn(-c2nc3ccccc3s2)c(N)c1Sc1ccc(F)cc1 | . | -1% | -3% | -14% | ? | 13µM* | 7.0% | 0%
COc1ccc(N2CCN(S(=O)(=O)CCNC(=O)C(c3ccccc3)c3ccccc3)CC2)cc1 | -17% | -8%[46.1 µM] | . | . | . | 19% | -3.2% | .
O=C(N/N=C/c1cccc([N+](=O)[O-])c1)c1nc2ccccc2c(=O)[nH]1 | 46%[activator] | 8% | 1% | 0% | 24% | . | . | -8%
COc1cc(-c2ccccc2)nc2ccccc12 | -23% | -18% | -12% | -26% | 0%[46.1 µM] | -6% | -8.5% | -30%
O=C(Cn1sc2ccccc2c1=O)N1CCN(C(=O)c2ccco2)CC1 | 5% | . | 1% | 3% | . | . | . | -14%
COc1ccc(Cc2nnc(SCC(=O)NC3CCCC3)o2)cc1 | 1% | -10% | 2% | ? | -7% | 15% | 5.5% | 5%
COc1ccc(C(=O)Nc2nnc(SCc3cc(=O)c4cc(C)ccc4[nH]3)s2)cc1OC | -21% | 26%[46.1 µM] | . | . | . | -7% | 3.2% | .
Cc1cc(S(=O)(=O)N2CCCOC2CNC(=O)C(=O)NCc2ccco2)ccc1F (stereo not drawn) | -6% | -21% | . | -4% | ? | . | . | -9%
O=C(COC(=O)C1CCC1)Nc1cccc(S(=O)(=O)N2CCOCC2)c1 | -16% | 23% | . | 7% | 8%[46.1 µM] | . | . | 2%
COc1ccc(-c2cc(C(F)(F)F)nc(SCCC(=O)Nc3c(C)cccc3C)n2)cc1 | -5% | 1%[46.1 µM] | . | . | -13%[46.1 µM] | 4% | -1.2% | .
Cc1c(/C=N/NC(=O)c2cc(=O)[nH]c(=O)[nH]2)c2ccccn2c1C(=O)c1ccccc1 | -10% | -5% | 4% | 1% | 2% | ? | -2.5% | -4%
COc1ccccc1CCNC(=O)C1CCN(c2nnc(-n3cccc3CNc3ccc(C)cc3)s2)CC1 | ? | . | . | . | 21%[46.1 µM] | 10% | -2.0% | .
CC1CC(C)CN(C(=O)Nc2ccccc2F)C1 (stereo not drawn) | 6% | . | 1% | -1% | . | . | . | 10%

(more compounds)
SMILES | 2A StopGo | LASV entry inh | NS1 function inh | SARS PLpro yeast | Marburg entry inh | Cruzain inh noDet | Cruzain inh Det | RE007 growth inh
COc1ccc(CNc2ncnc3sccc23)cc1OC | -24% | ? | -8% | 3% | -24%[46.1 µM] | . | . | 10%
Cn1ncc2c(NCc3ccc(F)cc3)ncnc21 | -9% | 9%[46.1 µM] | . | . | . | -8% | 1.1% | .
COc1ccc(CCNC(=S)NNC(=O)c2c(Br)c(C)nn2C)cc1OC | -12% | 12% | -8% | -3% | 14% | . | . | 15%
CC(Oc1ccc(Cl)cc1Cl)C(=O)NCCN1CCOCC1 (stereo not drawn) | -7% | ? | -6% | -3% | 2% | -13% | -20% | -11%
CC12C(=O)N(c3cccc(OC(=O)c4ccco4)c3)C(=O)C1C1c3ccccc3C2c2ccccc21 (stereo not drawn) | ? | ? | -84% | 3% | -3% | ? | -0.4% | 3%
Cc1[nH]c2ccccc2c1C(=O)C(=O)N1CCOCC1 | 16% | . | -7% | -2% | . | . | . | 8%
COc1ccc(N(C(C)C(=O)N/N=C/c2ccc(OC(C)C)cc2)S(C)(=O)=O)cc1 (stereo not drawn) | -29% | -29% | -13% | 2% | 18% | 14% | -2.5% | 4%
CCOc1ccccc1NC(=O)c1ccc2c(c1)C(=O)N(CC1CCCO1)C2=O (stereo not drawn) | -25% | . | -17% | 5% | . | . | . | 0%
